CtBP-E1A blk: qHTS Assay for Inhibitors of the CtBP/E1A Interaction | CtBP / adenovirus E1A interaction (AlphaScreen) | AlphaScreen GST-E1A/His-CtBP binding, 1536-well; active compounds read low; control for the full effect not named in the record | activity change, % (no concentration beside the values) | 340,000 compounds, 0.49% hits; in the data active means activity change below about -65%; inconclusive means about -30% to -65%; inactive means above about -30%; also: % is scaled to controls: 0 for no effect and ±100 for the full control effect
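In 5 uL wells, 23 nL compound meets equimolar GST-E1A and His-CtBP (5X stock 125 nM each) for 2 h, 37 °C. Beads (5X, 50 ug/mL) then 1 h, 37 °C, dark.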
TRPV1 potentiator: HTS Assay for Compounds that Act as Potentiators of the Vanilloid Receptor 1. Transient receptor potential cation channel subfamily V member 1 (Homo sapiens), Q8NER1. TRPV1-expressing cells, Fluo-8 calcium influx, capsaicin EC20 potentiation; host cell line not named in the record; control for the full effect not named in the record. potentiation, % at 8.33 µM. 320,000 compounds, 0.02% hits. AID 540277, 2011; active means potentiation above 80%; inconclusive means 30% to 80%; inactive means below 30%; also: 0% is about no effect
Target sequence (Q8NER1 whole entry, looked up): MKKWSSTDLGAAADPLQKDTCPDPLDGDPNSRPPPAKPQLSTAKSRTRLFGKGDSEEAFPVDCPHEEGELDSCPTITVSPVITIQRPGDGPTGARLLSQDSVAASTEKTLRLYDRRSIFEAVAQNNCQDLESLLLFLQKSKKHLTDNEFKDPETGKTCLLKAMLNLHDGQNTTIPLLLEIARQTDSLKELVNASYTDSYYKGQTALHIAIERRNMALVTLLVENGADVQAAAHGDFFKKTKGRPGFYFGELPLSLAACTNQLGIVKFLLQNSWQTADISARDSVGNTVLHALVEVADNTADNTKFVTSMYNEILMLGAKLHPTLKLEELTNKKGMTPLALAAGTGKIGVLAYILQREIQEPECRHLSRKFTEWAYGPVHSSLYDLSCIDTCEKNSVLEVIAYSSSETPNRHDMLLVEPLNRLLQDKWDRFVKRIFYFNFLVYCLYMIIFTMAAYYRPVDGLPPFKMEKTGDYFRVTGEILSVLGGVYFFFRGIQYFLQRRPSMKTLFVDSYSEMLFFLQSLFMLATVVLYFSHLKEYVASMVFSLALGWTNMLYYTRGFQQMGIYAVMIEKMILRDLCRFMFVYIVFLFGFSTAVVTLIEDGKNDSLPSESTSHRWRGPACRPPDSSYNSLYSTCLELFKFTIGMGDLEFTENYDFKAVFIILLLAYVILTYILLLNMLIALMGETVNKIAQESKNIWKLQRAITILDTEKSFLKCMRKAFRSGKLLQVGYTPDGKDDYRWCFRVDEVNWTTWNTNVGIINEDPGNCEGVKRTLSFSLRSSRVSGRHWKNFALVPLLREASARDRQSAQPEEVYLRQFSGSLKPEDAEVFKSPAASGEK
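Cells expressing TRPV1 were dye-loaded with Fluo-8 and read kinetically: 10 s baseline, 3 min after compound (agonist portion), then 2 min after EC20 capsaicin (allosteric enhancer portion). Calcium-bound dye fluorescence at 480/520 nm.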
TRPML1 inh: qHTS for Inhibitors of the Human Mucolipin Transient Receptor Potential 1 (TRPML1) | TRPML1-inducible cells, Ca2+ dye fluorescence, FDSS; active compounds read low; inhibition of EC80 agonist-evoked calcium signal | activity change, negative = inhibition, % (concentration not given with the values) | 390,000 compounds, 0.02% hits; in the data active means activity change below about -50%; inconclusive means about -30% to -50%; inactive means above about -30%;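 also: stimulus is agonist 54-4 at its EC80 concentration; % is scaled to controls: 0 for no effect and ±100 for the full control effect; the text of the record puts the active cut at -80%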
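TRPML1-DL cells, Tet-induced overnight (~16 h, 37 °C) at 1,500 cells/well, were loaded with Ca8 no-wash dye plus quencher for 45-90 min at room temperature. Compounds were pinned during FDSS kinetic reading; agonist 54-4 at EC80 (4 uM final) then added.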
D2 PAM: Beta-Arrestin HTS for Positive Allosteric Modulators of the Human D2 Dopamine Receptor: Potentiators. D(2) dopamine receptor (Homo sapiens), P14416. DiscoveRx D2 beta-arrestin cells, luminescence, 90 min; 100% = 57 uM dopamine signal. potentiation, % (test concentration not listed). 360,000 compounds, 0.23% hits; active = potentiation of 50% or more; inconclusive = 30% to 50%; inactive = 30% or less;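 also: compound concentration not given in the record; tested on top of an EC20 dose of dopamine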
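D2 cells co-treated with compound plus 50 nM dopamine (EC20) for 90 min at 37 deg C to detect potentiation. Beta-arrestin recruitment was read as enzyme-fragment luminescence after 1 h at ambient temperature. Full response was set by 57 uM dopamine.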
Six1-Eya2 blk: qHTS Assay for Inhibitors of the Six1/Eya2 Interaction. Homeobox protein SIX1 (Homo sapiens) + Protein phosphatase EYA2 (Homo sapiens), …. AlphaScreen GST-Six1/His-Eya2 binding, biochemical; active compounds read low; control for the full effect not named in the record. activity change, % (no concentration beside the values). 360,000 compounds, 0.56% hits; in the data active = activity change below about -65%; inconclusive = about -30% to -65%; inactive = above about -30%; also: % is scaled to controls: 0 for no effect and ±100 for the full control effect
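GST-Six1 + His-Eya2 (5X stock: 250/500 nM); Tris pH 8.0, 300 mM NaCl, 0.05% BSA, 0.02% Tween 20; GSH donor/Ni acceptor beads; 1 h 37 °C dark; AlphaScreen readout.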
TRPML1 agonist: qHTS for Agonists of the Human Mucolipin Transient Receptor Potential 1 (TRPML1). Mucolipin-1 (Homo sapiens), Q9GZU1. TRPML1-expressing cells, Ca2+ dye fluorescence, FDSS; host cell line not named in the record; reference of the full effect not given here. activation, % (concentration not given with the values). 410,000 compounds, 0.12% hits; in the data active = activation above about 50%; inconclusive = about 30% to 50%; inactive = below about 30%; also: 0% is about no effect; the text of the record puts the active cut at 80%
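Cells: TRPML1-DL, 1X Tet inducer, ~16 h at 37 degrees C/5% CO2. Dye: ABD Ca8 no-wash + quencher, 45-90 min RT. Read: 10 s baseline, compound add, 110 s agonist phase; 54-4 EC80 (4uM final), 110 s antagonist phase.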
An asterisk follows results filed as active; ? = inconclusive; · = no result given.

SMILES	CtBP-E1A blk	TRPV1 potentiator	TRPML1 inh	D2 PAM	Six1-Eya2 blk	TRPML1 agonist
CC1(C(=O)O)CCN1C(=O)c1ccccc1F (stereo not given)	13	·	35	-4	19	0.7
Cc1cnc(C(=O)N2CCCC(C(=O)c3ccc(C(C)(C)C)cc3)C2)cn1 (stereo not given)	-3	3	9	-6	-4	-0.7
O=C(O)CC(c1ccccc1F)N1Cc2ccccc2C1=O (stereo not given)	2	-6	-8	0	6	0.5
COc1ccc(CCNC(=O)CSc2ncn[nH]2)cc1	48	2	1	2	3	0.2
NC(=O)C1CCN(C(=O)c2cc3ccccc3cc2O)CC1	6	-8	-3	25	4	-0.6
CC(C)n1cnc2cc(NCc3nc4ccccc4n3C)ccc21	-15	2	-2	-5	-10	0.2
CCOC(=O)N1CCN(Cc2nc3cc(NC(C)=O)ccc3n2CC)CC1	4	-17	·	-4	1	·
Cc1ccc(NC(=O)CN(C)S(=O)(=O)c2ccc3[nH]c(=O)oc3c2)c(C)c1	3	-29	30	-10	-1	0.5
CCOc1ccccc1NC(=O)CSc1nncc2ccccc12	0	?	40	-10	-9	1.8
CC(C)Oc1ccc(C(=O)NCC(=O)OCC(=O)N(C)Cc2cccs2)cc1	3	1	3	-3	-1	0.6
Cc1ccccc1/C=N/NC(=O)c1ccc(-n2cnnn2)cc1	·	-30	8	-4	-1	-0.2
O=C(Nc1c(Cl)cc(Cl)cc1-c1nc2ccccc2s1)c1ccc(Br)o1	13	5	8	-13	7	4.0
COc1ccc(C(=O)O/N=C/c2ccc(S(=O)(=O)c3ccc(Cl)cc3)nc2)cc1	1	·	-4	-1	1	0.7
CC(C)[C@@H]1C=C(C(=O)O)O[C@H](OCCCCO)C1	-13	-1	3	-5	?	-0.9
O=C(CCC(=O)N1CCN(c2ccccc2F)CC1)N1CCN(c2ccc(F)cc2)CC1	0	-5	15	9	-9	1.4
O=C1CCCc2c1nc(-c1ccc([N+](=O)[O-])cc1)n2O	7	·	-8	-15	3	-0.4
COc1ccc(OC)c(CN2CCN(S(=O)(=O)c3ccc(NC(C)=O)cc3)CC2)c1	-2	4	9	-21	-12	2.2
O=C(N/N=C/c1cc2c(cc1Cl)OCO2)c1cc(-c2ccccc2)n[nH]1	-3	-6	-1	17	-8	-0.2
Cc1onc(-c2c(Cl)cccc2Cl)c1C(=O)O/N=C(\C#N)c1c(Cl)cccc1Cl	·	·	33	-19	1	-1.1
COC(=O)c1ccc(NC(=O)CCc2c(C)nc3ncnn3c2C)cc1	-4	27	5	-10	6	0.0
COC(=O)c1cc(C#N)c(NCc2ccccc2)nc1C	-5	10	-6	1	-1	0.8
Cc1cc(C)cc(-n2nnnc2SCC(=O)Nc2nc(-c3ccc(F)cc3)cs2)c1	3	9	-8	2	5	1.1
CN(C)S(=O)(=O)c1cccc(N2C(=O)CC3(CCCCC3)CC2=O)c1	-7	-11	-4	-11	-5	0.0
CCCN(CCC)c1cc(Cl)nc(N)n1	-7	1	-15	1	-1	-0.1
CCCCCCn1cc(C(=O)O)c(=O)c2cc(F)c(N3CCN(C)CC3)cc21	-2	-4	-11	0	-8	-0.4

Later entries
SMILES	CtBP-E1A blk	TRPV1 potentiator	TRPML1 inh	D2 PAM	Six1-Eya2 blk	TRPML1 agonist
CCOC(=O)c1ccc(Oc2c(C)oc3c(CN4CCN(C)CC4)c(O)ccc3c2=O)cc1	-3	12	-14	-23	10	0.6
NC(=O)c1c(NC(NC(=O)c2ccco2)(C(F)(F)F)C(F)(F)F)sc2c1CCCC2	-3	25	29	30	1	0.2
COc1ccc(N(CC(=O)Nc2ccc(C)cc2C)S(=O)(=O)c2c(C)n[nH]c2C)cc1	-18	-1	5	-4	1	0.0
COc1cc(OC)cc(C(=O)NCCNC(=O)c2ccccn2)c1	22	2	1	-1	6	0.6
Cc1ccc(C(O)c2ncc(-c3ccc(F)cc3)[nH]2)cc1F (stereo not given)	-11	·	·	-8	-12	-1.3
Cc1ccc(S(=O)(=O)C/N=C(/NC(=S)N(c2ccccc2)c2ccccc2)c2ccccc2)cc1	3	-8	-2	-20	-3	-0.1
CCCCCCn1c(=O)n2n(c1=O)[C@@H]1CN(S(=O)(=O)c3ccc(C)cc3)C[C@]1(O)[C@@H](OC(=O)NC1CC1)C2	-6	·	-9	3	6	-0.8
CCn1c(C)[n+](CCOC(C)=O)c2cc(Cl)c(Cl)cc21	-2	17	-10	-7	5	-0.6
CCOC(=O)C(NC(=O)c1ccccc1)=C1C=C(C)OC(C)=C1	3	-4	-18	-3	11	-0.4
COc1cc(C)c2sc3ccccc3c(=O)c2c1NCCN(C)C	-26	·	-5	-24	-75*	0.5
O=C(NCc1ccccn1)Nc1cc(Cl)cc(Cl)c1	2	1	16	-38	6	-0.3
Cn1c(=O)c(C(=O)CN2CCCc3ccccc32)c(N)n(Cc2ccccc2)c1=O	-3	7	5	-20	-11	-0.5
CC1CCN(S(=O)(=O)c2ccc3ncn(CC(=O)N(C)Cc4ccccc4)c(=O)c3c2)CC1	-4	1	-3	-2	8	-1.0
Cc1ccc(S(=O)(=O)N(C)c2ccc(C(=O)Nc3c(C)n(C)n(-c4ccccc4)c3=O)cc2)cc1	11	-7	16	-10	1	3.2
O=C(O)c1ccc(N2C(=O)CC(N3C(=O)/C(=C/c4ccc(Cl)cc4)SC3=S)C2=O)cc1 (stereo not given)	-2	12	1	-8	-14	-0.3
CC(=O)N1CCN(C(=O)CNC(=O)c2ccc(C)s2)CC1	-3	·	49	3	9	0.8
O=C(Nc1cccc(C(F)(F)F)c1)c1cccnc1N1CCN(c2ccccc2)CC1	-20	?	37	-12	-12	2.6
O=C(c1ccco1)N1CCN(C(=S)Nc2cccc([N+](=O)[O-])c2)CC1	8	-1	3	-5	-2	-0.1
Oc1ccccc1CNc1ccc(Br)cn1	2	-3	50	?	2	2.6
O=C1OCCN1CC(=O)N1CCc2c([nH]c3ccccc23)C1c1ccccn1 (stereo not given)	8	-3	-12	1	2	-0.3
COCCn1nnnc1C(c1cccc(C(F)(F)F)c1)N1CCN(Cc2ccccc2)CC1 (stereo not given)	-1	-14	2	-25	5	13
Cc1ccc(NC(=O)C2=C(C(=O)O)CCCC2)cc1Br	2	1	0	2	1	-0.6
CCN(CC)C(=O)COC(=O)c1ccc(O)cc1	-2	-4	-12	1	-1	-0.8
C=CCNC(=S)Nc1ccc(F)cc1F	·	-14	-7	-7	6	0.1
Cc1ccc(C)c(S(=O)(=O)Nc2ccc(C(=O)N3CCCCC3)cc2)c1	-11	14	-15	2	6	-0.4

More structures follow.
SMILES	CtBP-E1A blk	TRPV1 potentiator	TRPML1 inh	D2 PAM	Six1-Eya2 blk	TRPML1 agonist
C=CCN(C(C)=O)C1CC(=O)N(c2ccc(OCCC)cc2)C1=O (stereo not given)	3	13	11	-11	-6	-0.8
CCc1cccc(NC(=O)Cn2cc3c(n2)CCCC3)c1	3	-3	0	-5	5	0.1
COc1cccc(NC(=O)CN(C)C(=O)c2ccc3c(c2)C(=O)N(CCC(C)C)C3=O)c1	-6	-13	-13	-1	-1	0.6
O=c1cc(CN2CCc3ccccc32)c2ccc(O)cc2o1	-17	8	-19	-4	-24	-0.4
O=C(NCCOC(=O)c1ccc(Cl)c(S(=O)(=O)N2CCCCC2)c1)c1ccncc1	-2	-20	-2	7	-3	-0.6
Cc1ccnc(NC(=O)c2ccc3c(c2)OCO3)c1	-20	-12	11	-10	9	-0.1
CC1Cc2ccccc2N1C(=O)CN(C)S(=O)(=O)c1cccc2cccnc12 (stereo not given)	-2	-9	26	-3	-4	-0.5
COC(=O)Cc1ccc(NC(=O)c2ccc(Br)o2)cc1	4	-33	-12	-18	4	-0.8
O=C(NC1CCCCCC1)C1c2ccccc2C(=O)N1Cc1cccs1 (stereo not given)	9	1	2	-4	6	-0.9
O=C(CCC1CCCC1)N1CCC(N2CCN(c3ccccc3)CC2)CC1	1	3	13	-22	-3	0.6
CN(C(=O)COC(=O)CCC(=O)c1ccc(F)cc1)C1CCCCC1	-4	·	-11	-7	8	2.7
CCOc1ccc(CCNC(=O)c2nn(C)c3c2CS(=O)(=O)c2ccccc2-3)cc1	·	-1	4	-3	4	2.4
Cc1nc(-c2ccc3c(c2)OCCO3)cs1	5	17	15	-1	8	-0.7
C=CCCC(=O)NC1CCCc2c1cnn2-c1ccccc1F (stereo not given)	6	0	-3	0	5	1.1
COc1ccc(CCNC(=O)c2cc(-c3cc(Cl)cc(Cl)c3)oc2C)cc1	14	·	-6	-7	6	1.9
CCCCCOc1ccc(CSc2ncn[nH]2)cc1	2	12	-1	0	-2	1.6
Cc1ccc(S(=O)(=O)NCC(=O)N2CCCCC2)cc1	2	·	3	0	-1	-0.8
CC1CC(C)CN(C(=O)c2cccc(N3C(=O)c4ccccc4C3=O)c2)C1 (stereo not given)	·	-10	14	-6	-2	-0.2
CCOC(=O)c1ccc(NC(=O)NCCc2cnc[nH]2)cc1	-11	3	9	-6	-13	-0.5
CCc1nc(-c2ccc(C)nc2OC)no1	1	-3	17	-9	-9	-0.7
Cc1nc(Cl)c(C#N)cc1-c1ccccc1	7	·	83	3	12	0.6
Cc1csc2nc(CSc3nc4ccccc4o3)c(Br)n12	-1	17	11	9	-10	-0.8
Cc1ccc(N2C(=O)CN=C2Nc2nc(C)cc(C)n2)cc1	-1	-4	-3	0	13	-0.1
CN(C)c1nc(OCCNC(=O)Nc2ccccc2)nc(N2CCOCC2)n1	·	-19	-9	15	3	1.5
CC(C)c1nc(SCC(=O)Nc2ccc([N+](=O)[O-])cc2Br)n[nH]1	-1	3	-6	8	0	0.4
Cc1ccc(-c2csc(NC(=O)Cc3ccc(F)cc3)n2)o1	0	-28	0	-2	-5	0.3
Cc1cc2c3c(c1)C1(C(=O)N3C(C)(C)CC2C)C(C#N)=C(N)OC2=C1C(=O)CC(C)(C)C2 (stereo not given)	6	-3	-6	5	-3	0.9

Molecules from the list above containing a COOH group (6):
SMILES	CtBP-E1A blk	TRPV1 potentiator	TRPML1 inh	D2 PAM	Six1-Eya2 blk	TRPML1 agonist
CC1(C(=O)O)CCN1C(=O)c1ccccc1F (stereo not given)	13	·	35	-4	19	0.7
O=C(O)CC(c1ccccc1F)N1Cc2ccccc2C1=O (stereo not given)	2	-6	-8	0	6	0.5
CC(C)[C@@H]1C=C(C(=O)O)O[C@H](OCCCCO)C1	-13	-1	3	-5	?	-0.9
CCCCCCn1cc(C(=O)O)c(=O)c2cc(F)c(N3CCN(C)CC3)cc21	-2	-4	-11	0	-8	-0.4
O=C(O)c1ccc(N2C(=O)CC(N3C(=O)/C(=C/c4ccc(Cl)cc4)SC3=S)C2=O)cc1 (stereo not given)	-2	12	1	-8	-14	-0.3
Cc1ccc(NC(=O)C2=C(C(=O)O)CCCC2)cc1Br	2	1	0	2	1	-0.6

Screening results: PubChem BioAssay, National Center for Advancing Translational Sciences (NCATS)
